Mtb betalactam: beta-lactam sensitization of Mtb H37Rv | M. tuberculosis H37Rv growth with meropenem, percent inhibition; hits of this screen are not shown here | inhibition, % at 25 µM | AID 434955 | 330,000 tested, 0.27% active;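 active = about 74% or more and at least 40 points above the plate without the antibiotic, then above 30% in a dose series; inconclusive = first-round hits that could not be retested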;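 also: growth measured after seven days incubation then overnight dye step; 0% = bacteria only wells and 100% = bacteria with antibiotic; twin plates without the antibiotic show which effects depend on it; some results filed as inactive read as strong as hits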
Arbovirus anti: antivirals against arbovirus infection; arbovirus infection cell-based antiviral screen; inhibition, % at 10 µM; 200,000 tested, 0.37% active; AID 1251;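 active = inhibition from about 30%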;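 also: bluetongue infection of BSR cells; cell survival read as ATP light after 72 h; 0% = infected wells without compound and 100% = uninfected wells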
Mtb H37Rv: M. tuberculosis H37Rv growth inhibitors, H37Rv strain (AID 1626) | M. tuberculosis H37Rv growth inhibition; higher % means a stronger effect | one-dose inhibition, % at 10 µM; IC50 in µM for titrated hits | 220,000 tested, 0.95% active;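 active = confirmed in a dose series; inconclusive = inhibition above 80% but not taken into the dose series; inactive = below 80% or under 30% at every dose of the series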;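 also: bacteria incubated seven days before Alamar blue readout; 0% = bacteria only wells and 100% = bacteria with antibiotic wells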
RecA splice inh: blocks M. tuberculosis RecA intein splicing. P9WHJ3. cell-free RecA intein splicing, fluorescence. inhibition, %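 (about 9 µM by stock and volumes)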. 290,000 tested, 0.75% active. AID 2221; in the data active = inhibition above about 30%; inconclusive = no clear call, values can overlap the other calls;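 also: 0% = vehicle wells and 100% = reference inhibitor control wells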
Target sequence (P9WHJ3 whole entry, looked up, canonical isoform): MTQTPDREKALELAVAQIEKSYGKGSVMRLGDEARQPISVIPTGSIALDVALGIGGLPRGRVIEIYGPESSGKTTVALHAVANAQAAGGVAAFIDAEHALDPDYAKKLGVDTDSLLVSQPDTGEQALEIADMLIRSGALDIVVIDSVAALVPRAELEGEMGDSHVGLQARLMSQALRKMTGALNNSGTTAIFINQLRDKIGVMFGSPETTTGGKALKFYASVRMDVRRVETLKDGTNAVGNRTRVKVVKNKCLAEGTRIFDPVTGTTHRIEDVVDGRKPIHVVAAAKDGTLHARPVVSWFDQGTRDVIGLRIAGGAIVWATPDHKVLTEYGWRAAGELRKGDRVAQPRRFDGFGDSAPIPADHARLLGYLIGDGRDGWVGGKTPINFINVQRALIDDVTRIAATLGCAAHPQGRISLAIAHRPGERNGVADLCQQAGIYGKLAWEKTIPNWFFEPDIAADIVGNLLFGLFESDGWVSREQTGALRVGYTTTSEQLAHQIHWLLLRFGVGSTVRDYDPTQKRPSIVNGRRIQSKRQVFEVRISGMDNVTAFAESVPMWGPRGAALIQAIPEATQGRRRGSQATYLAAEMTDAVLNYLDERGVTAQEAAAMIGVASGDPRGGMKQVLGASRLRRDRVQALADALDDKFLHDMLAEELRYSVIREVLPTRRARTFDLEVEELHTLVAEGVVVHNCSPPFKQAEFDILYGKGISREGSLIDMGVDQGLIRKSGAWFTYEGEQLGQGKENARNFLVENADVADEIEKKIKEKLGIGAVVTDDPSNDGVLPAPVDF
YopH PTP inh: inhibitors of Yersinia enterocolitica YopH tyrosine phosphatase; fluorescence Ex485/Em525; inhibition, %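 (about 10 µM by stock and volumes)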; AID 898; 140,000 tested, 0.16% active;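 active = inhibition of 50% or more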;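 also: controls were vehicle for no effect and minimum signal wells for full effect; inactives centre near -20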
Arbovirus anti repeat: second read-out of Arbovirus anti, no call of its own (marks repeat the call); inhibition, %; measured here: 10K subset replicate screen; many hits read low in the repeat;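 first of two repeat runs on a subset; 0% = infected and 100% = uninfected wells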
Active calls of the source: *; ? = inconclusive; nt = not tested or not shown. An excerpt. The share of hits here may be higher or lower than overall.

SMILES | Mtb betalactam | Arbovirus anti | Mtb H37Rv | RecA splice inh | YopH PTP inh | others
COc1ccc(CNC(=O)c2cc3cccc(O)c3oc2=N)cc1 | -6 | nt | nt | -2.0 | nt
COCCNC(=S)N1CCCN(c2nc3cc(C)ccc3cc2C#N)CC1 | -4 | nt | nt | -23 | nt
COC(=O)c1cc(S(=O)(=O)N2CCN(C(=O)c3ccco3)CC2)cn1C | 14 | nt | nt | 0.6 | nt
Cc1cc(C)c(CN2CCC(N3CCC(C(=O)NCC4CCCO4)CC3)CC2)cc1C (stereo unspecified) | 4 | nt | nt | 1.2 | nt
Cc1cccn2c(=O)c3cc(C(=O)NCc4ccco4)c(=N)n(CCOCCO)c3nc12 | 4 | -3 | -9% | -202 | -35
O=C(O)C1CC(=O)N(c2ccc(OCc3ccccc3Cl)cc2)C1 (stereo unspecified) | nt | 5 | 2% | -0.6 | 11
CCc1cccc(NC(=O)CN2C(=O)NC3(CCCCCCC3)C2=O)c1 | 34 | -4 | -2% | 7.6 | 6
CCN1CCN(CC(=O)Nc2nc3ccccc3s2)CC1 | 4 | nt | nt | -1.5 | nt
CCCCn1c(CCCNC(=O)c2ccco2)nc2ccccc21 | ? | nt | nt | 2.7 | nt
Fc1ccc(-c2nnc(CSc3nnc(-c4ccc5c(c4)OCO5)o3)o2)cc1 | ? | 5 | 7% | nt | -41
COc1ccc(NC(=S)NCc2ccccc2)c(OC)c1 | 7 | nt | nt | -2.4 | nt
CCOc1cccc(CN2CCC(Oc3ccc(C(=O)N4CCCC4)cc3)CC2)c1 | -5 | nt | nt | 3.2 | nt

Molecules listed so far containing a halogen:
SMILES | Mtb betalactam | Arbovirus anti | Mtb H37Rv | RecA splice inh | YopH PTP inh | others
O=C(O)C1CC(=O)N(c2ccc(OCc3ccccc3Cl)cc2)C1 (stereo unspecified) | nt | 5 | 2% | -0.6 | 11
Fc1ccc(-c2nnc(CSc3nnc(-c4ccc5c(c4)OCO5)o3)o2)cc1 | ? | 5 | 7% | nt | -41

More compounds follow:
SMILES | Mtb betalactam | Arbovirus anti | Mtb H37Rv | RecA splice inh | YopH PTP inh | others
CN(C)c1ccc(C(=O)/C=C/c2ccc(Br)cc2)cc1 | 1 | 7 | 4% | 0.0 | -29
CCCc1[nH]nc2c1C(c1ccc(OCCN3CCOCC3)c(OCC)c1)C(C#N)=C(N)O2 (stereo unspecified) | 6 | -3 | -9% | 44* | 37
COc1ccc(CCC(C)Nc2ccc(F)cc2)cc1 (stereo unspecified) | -3 | 3 | 18% | 10 | -25
COc1ccccc1OCC(=O)NN1Cc2ccccc2C1=N | -18 | 1 | 2% | 0.3 | 3
COc1cc(NC(=O)C(=O)NNC(=O)C2CCCCC2)c(OC)cc1Cl | 37 | -7 | ? | -2.4 | -6
CCn1c(COc2ccccc2)nnc1SCC(=O)C(C)(C)C | 2 | 18 | 7% | -0.4 | -36
CS(=O)(=O)Nc1ccccc1C(=O)NCC1(N2CCCCC2)CCCCC1 | -8 | nt | nt | -1.7 | nt
O=C(COc1ncnc2sccc12)NC1CCCc2ccccc21 (stereo unspecified) | 24 | -7 | 0% | 1.2 | -34
Nc1nc(=S)c2ncn(C3OC(CO)C(O)C3O)c2[nH]1 (stereo unspecified) | 3 | nt | -2% | -8.8 | nt
O=C(c1cc2nc(-c3ccc(F)cc3)cc(C(F)(F)F)n2n1)N1CCCC1 | nt | 0 | -4% | nt | -33
Cc1ccc(NC(=O)COC(=O)C(CC(C)C)N2C(=O)C3CC=CCC3C2=O)c(C)c1 (stereo unspecified) | 4 | -7 | 3% | 1.0 | -29
O=C(CN1C2=NCCN2c2ccccc21)c1ccc2c(c1)OCO2 | -2 | 0 | -3% | -0.1 | -38
O=C(COC(=O)c1ccc[nH]c1=O)NCCc1ccc(F)cc1 | -5 | -2 | 0% | -3.0 | nt
O=C(/C=C/c1c(Cl)cccc1Cl)NCc1ccco1 | 7 | -4 | 3% | 3.1 | -26
O=C(N/N=C/c1ccncc1)c1cccs1 | 8 | nt | nt | -3.0 | nt
O=C(CCNS(=O)(=O)c1ccc(Br)s1)NCc1ccc(F)cc1 | 4 | -9 | -9% | -3.7 | nt
CCOc1ccc(NC2=NCCCS2)cc1 | -2 | nt | nt | -0.4 | nt
O=C(CCCCCCCC(=O)c1ccccc1)c1ccccc1 | 9 | -1 | 2% | 1.2 | nt
COc1ccc(C)cc1NC(=O)c1ccoc1C | 2 | -3 | -4% | -1.0 | -35 | Arbovirus anti repeat=-2
O=C(Nc1ccccc1F)NC1CC1 | 0 | 1 | -4% | 0.8 | nt
Cc1c(NC(=O)CN2C(=O)NC(C)(c3ccc(OC(F)F)cc3)C2=O)c(=O)n(-c2ccccc2)n1C (stereo unspecified) | -4 | nt | nt | -6.0 | nt
CCNc1ccccc1C(=O)O | -2 | nt | 5% | 0.2 | nt
COc1ccc(CCNC(=O)CCSc2nc(-c3ccco3)cc(C(F)(F)F)n2)cc1OC | 4 | -18 | 6% | 5.1 | 7
Cc1ccc2c(c1)NC(=O)C(N1CCOCC1)(C(F)(F)F)O2 (stereo unspecified) | -1 | 1 | 11% | 1.4 | -37
COC(=O)Nc1nc(-c2cc(Cl)ccc2Cl)cs1 | -11 | -5 | 0% | -1.3 | nt
CN1C(=O)C2C[C@@]3(Br)c4ccccc4N(OOSc4ccccc4)[C@H]3N2C(=O)[C@@H]1Cc1ccccc1 (stereo partly specified) | -5 | nt | 2% | 6.1 | nt
CC(=O)Nc1ccc(S(=O)(=O)Nc2cc(C)cn(Cc3ccccc3)c2=O)cc1 | -11 | nt | nt | 0.3 | nt
COc1cccc(/C=N/N2CCOCC2)c1O | -1 | -13 | -2% | -3.2 | -29
O=C(CN1C(=O)C2CC=CCC2C1=O)NCC(=O)Nc1ccc(F)c(F)c1F (stereo unspecified) | -6 | -3 | 4% | 3.3 | nt
C=CCO/N=C(\C)c1c(O)c(C)c(-c2ccccc2)n(-c2ccccc2)c1=O | 7 | 1 | -8% | 4.8 | -39
COc1ccc(Cl)cc1NC(=S)NNC(=O)C1(C)CC1(Cl)Cl (stereo unspecified) | -1 | 6 | 6% | 0.8 | nt
CC(C)CN(C(=O)COC(=O)C(C)N1C(=O)c2ccccc2C1=O)c1c(N)n(Cc2ccccc2)c(=O)[nH]c1=O (stereo unspecified) | -1 | nt | nt | 0.4 | nt
O=C(CCN1C(=O)C2CC=CCC2C1=O)Nc1cc(C(F)(F)F)ccc1N1CCCC1 (stereo unspecified) | 1 | nt | nt | 2.6 | nt
Cc1nn(-c2ccc(Cl)cc2)c2sc(C(=O)c3c(N)n(C)c(=O)n(C)c3=O)cc12 | 13 | 19 | -1% | -3.3 | -17
O=C(CC(c1ccc(F)cc1)c1ccco1)Nc1nccs1 (stereo unspecified) | -10 | -2 | 4% | nt | nt
CC(C)(NC(=O)c1cc(Cl)c2ccccc2c1O)C(=O)O | 2 | nt | -18% | -3.6 | nt

Reprinted from the part before: 3 compounds, then new ones.
SMILES | Mtb betalactam | Arbovirus anti | Mtb H37Rv | RecA splice inh | YopH PTP inh | others
Cc1nn(-c2ccc(Cl)cc2)c2sc(C(=O)c3c(N)n(C)c(=O)n(C)c3=O)cc12 | 13 | 19 | -1% | -3.3 | -17
O=C(CC(c1ccc(F)cc1)c1ccco1)Nc1nccs1 (stereo unspecified) | -10 | -2 | 4% | nt | nt
CC(C)(NC(=O)c1cc(Cl)c2ccccc2c1O)C(=O)O | 2 | nt | -18% | -3.6 | nt
COc1ccc(/C(C)=N/NC(=O)CNC(=O)c2cccnc2)cc1OC | -2 | nt | nt | -3.4 | nt
CC(=O)C1=C(O)CCCC1=NCc1nc2ccccc2[nH]1 | -9 | 5 | -5% | nt | nt
CCc1ccc(-n2c(=S)sc3c(=O)n(-c4ccccc4C)c(SCC(=O)O)nc32)cc1 | -5 | nt | nt | -2.4 | nt
COCCn1c(-c2ccc(Cl)cc2)cnc1SCC(=O)NCCc1ccc(OC)c(OC)c1 | 2 | 4 | 6% | 2.4 | -8
CSc1ccc(C(=S)N2CCN(C)CC2)cc1 | 1 | -2 | -7% | 1.0 | -41
CCCCn1c(=O)c(C(=O)Nc2cccc(C)c2)c(O)c2ccccc21 | 100 | nt | nt | -0.9 | nt
CCOC(=O)COc1c(C=O)cc(Br)cc1OC | 100 | 7 | -1% | 0.0 | -14
CCc1cc(-c2n[nH]c(=S)n2N)n(C)n1 | -4 | -1 | -1% | -0.9 | -19
CCOC(=O)C1CCN(C(=O)Cc2ccc(OC)c(OC)c2)CC1 | -5 | 14 | -3% | -1.6 | -16
O=C(Cc1cccs1)Nc1ccc(-c2nnn(CC(=O)N3CCOCC3)n2)cc1 | 5 | 7 | -7% | 3.4 | -41
CS(=O)(=O)c1ccccc1-c1nnc(NC(=O)c2ccc(S(=O)(=O)N3CCCC3)cc2)o1 | -5 | nt | nt | 0.0 | nt
Fc1cccc(CNCc2ccc3c(c2)OCO3)c1 | 0 | nt | nt | -1.7 | nt
O=c1c2ccccc2nc(/C=C/c2ccccc2)n1CCCO | 6 | nt | nt | -0.1 | nt
Cc1cc(Cl)c(S(=O)(=O)NCc2cccnc2)cc1OCC(=O)NC1CCCCC1 | -10 | 9 | -3% | 1.3 | -16
CCNC(=O)Nc1ccccc1C(=O)OC | 0 | -1 | 7% | 2.1 | nt
O=C(CN1CCOCC1)NNC(=S)Nc1ccc(Cl)cc1 | -1 | 2 | 5% | -0.3 | nt
NNC(=O)CCN1CCN(Cc2ccccc2)CC1 | -4 | 3 | 2% | 4.6 | nt
Cc1ccc(CN(C(=O)c2c(F)cccc2F)C2CC(C)(C)NC(C)(C)C2)o1 | -11 | -5 | -2% | -1.2 | -36
Cc1cc(=O)oc(C)c1C(=O)NC1CC(C)(C)NC(C)(C)C1 | -8 | 9 | -2% | -1.0 | -8
Cc1ccc(S(=O)(=O)N2CCC(=O)N(CCOC(=O)Nc3ccc(F)cc3)CC2)cc1 | -7 | 14 | -6% | -0.3 | -26
Cc1nn(-c2ccccc2)c(C)c1P(=O)(c1ccccc1)N(C)C (stereo unspecified) | -3 | 12 | -2% | 0.4 | -5
Cc1ncc(CC(=O)n2cc(C(=O)c3cc(Cl)ccc3O)cn2)s1 | 1 | -4 | -1% | -1.3 | 8
Cc1cc([N+](=O)[O-])nn1CCCC(=O)Nc1cccnc1Cl | -1 | -2 | -8% | -0.5 | nt
Cc1nn(C(=O)c2cc([N+](=O)[O-])ccc2Cl)c(C)c1Br | -4 | nt | nt | 0.1 | nt
COc1cccc(-n2c(Cc3cc(=O)[nH]c(=O)[nH]3)nnc2SCC(=O)N2CCC(C)CC2)c1 | -3 | -1 | nt | 2.7 | -51
CC#CC(=O)N1CCC(CCc2ccccc2)(C(=O)OCC)CC1 | 0 | 0 | -1% | 3.3 | nt
Cc1c(C(=O)Nc2nccs2)sc2nc(-c3cccs3)cc(C(F)(F)F)c12 | 99 | -25 | ? | -5.9 | -7
CCOc1ccc(C(=O)N2CCN(c3cnn(-c4ccccc4)c(=O)c3Cl)CC2)cc1 | -10 | -7 | 2% | 2.6 | nt
Cc1cc(/C=C2\Sc3ccccc3N2C)cc(C)[n+]1CC1CCCO1 (stereo unspecified) | nt | -13 | ? | nt | nt
CN1/C(=C\C=Nc2ccc3ccccc3c2)C(C)(C)c2ccccc21 | 100 | 24 | ? | nt | -2
COc1ccccc1CCCNC(=O)C1CCC(=O)N(Cc2ccccc2F)C1 (stereo unspecified) | -3 | nt | nt | 2.3 | nt
C=Cn1ccnc1P(=S)(c1nccn1C=C)c1nccn1C=C | -8 | 2 | -13% | 0.8 | -7
O=C(/C=C\c1ccco1)Nc1ccc(N2CCN(C(=O)c3ccccc3)CC2)cc1 | 85 | 5 | 8% | -5.4 | -24
COc1ccc(Cl)cc1Nc1cc(C)nc2nc(C)nn12 | 7 | 1 | nt | 0.5 | -16 | Arbovirus anti repeat=-5
O=C(COc1cccc2ccccc12)N/N=C/c1ccc(Sc2nc3ccccc3s2)o1 | 6 | -3 | 7% | 7.6 | -7
O=C(N/C(=C/c1ccc(F)cc1)C(=O)N1CCCC1)c1ccccc1 | 4 | nt | nt | -0.5 | nt
CC1CCC(C(C)C)C(OCC(O)CNC(C)C)C1 (stereo unspecified) | -2 | nt | 2% | 0.1 | nt
CS(=O)(=O)/C(C#N)=C/c1cccn1S(=O)(=O)c1ccccc1 | -8 | nt | nt | 2.1 | nt
CC(=O)Oc1ccc2c(c1)O/C(=C\c1ccncc1)C2=O | -7 | nt | -4% | -8.3 | nt
N#Cc1c(-c2cccc(Cl)c2)[nH]c(=S)[nH]c1=O | -6 | nt | 1% | 11 | nt
O=C(OCN1C(=O)c2ccccc2C1=O)c1cccc(S(=O)(=O)N2CCOCC2)c1 | -7 | nt | nt | 3.5 | nt
CCOC(=O)C1=C(C)OC(N)=C(C#N)C1c1ccc(C)s1 (stereo unspecified) | 3 | -2 | 4% | -5.8 | nt
